High-throughput results (PubChem BioAssay)
ALOX12 inhib – qHTS Assay for Inhibitors of 12-hLO (12-human lipoxygenase); Polyunsaturated fatty acid lipoxygenase ALOX12 (Homo sapiens), P18054; actives 0.12% (n = 150,000); purified 12-hLO, xylenol orange hydroperoxide absorbance; Potency, µM (titrated, usually from 57.1 µM), without a hit: at the top dose activity change, negative = inhibition, hits mostly inhibitors; AID 1452, 2008; active = well fitted inhibition curve with a large enough effect; inconclusive = small, poorly fitted or top-dose-only effect; also: potency is read from the fitted curve at half-maximal effect; nearly all actives have a fitted effect of over 55% in size; many of its hits are not listed in these tables
Target sequence (P18054 whole entry, looked up): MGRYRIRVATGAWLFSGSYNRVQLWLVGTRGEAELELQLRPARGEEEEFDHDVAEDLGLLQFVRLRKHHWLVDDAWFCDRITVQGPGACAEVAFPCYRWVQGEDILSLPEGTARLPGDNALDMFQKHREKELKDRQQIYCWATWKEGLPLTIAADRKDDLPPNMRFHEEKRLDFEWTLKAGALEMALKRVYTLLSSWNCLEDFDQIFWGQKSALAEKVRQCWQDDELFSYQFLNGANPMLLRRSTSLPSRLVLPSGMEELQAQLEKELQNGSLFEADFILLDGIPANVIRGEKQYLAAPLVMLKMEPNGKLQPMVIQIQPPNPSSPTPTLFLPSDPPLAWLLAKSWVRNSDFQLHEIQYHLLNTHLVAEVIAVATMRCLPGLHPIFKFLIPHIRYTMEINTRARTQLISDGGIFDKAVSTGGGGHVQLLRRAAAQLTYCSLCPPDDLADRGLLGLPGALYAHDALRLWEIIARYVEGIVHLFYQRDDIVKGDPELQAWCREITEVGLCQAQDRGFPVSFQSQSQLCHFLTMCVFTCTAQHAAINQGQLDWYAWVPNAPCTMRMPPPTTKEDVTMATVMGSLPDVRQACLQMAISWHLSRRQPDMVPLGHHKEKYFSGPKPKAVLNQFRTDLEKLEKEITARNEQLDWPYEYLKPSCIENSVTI
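150 nM 12hLO, 25 mM Hepes pH 7.0 + 0.01% Triton X-100; cpd preinc 15 min RT; 40 uM arachidonic acid, 30 min RT; Fe-XO 30 min; A573/A405 ratio as read-out.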
IMPase inh – qHTS Assay for Identifying the Cell-Membrane Permeable IMPase Inhibitors. Inositol monophosphatase 1 (Rattus norvegicus), P97697. CHO-M1 cells, IP1 accumulation, HTRF TR-FRET ratio. inhibition (IP1 accumulation), % at 46.1 µM. 120,000 tested, under 10 active. AID 901, 2007; active = well fitted curve in the direction sought with a large enough effect in the signal ratio, not every such curve was filed as active; inconclusive = small, poorly fitted or top-dose-only effect, or a change in a side signal; inactive = no such curve, though single readings can be large or run the other way; the % refers to the signal ratio;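 also: cells stimulated with carbachol in lithium chloride buffer; plate controls were DMSO basal wells for no effect and reference inhibitor wells for full effect; higher means more IMPase inhibition seen as more IP1 and lower FRET ratio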
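Elevated IP1 in lysates lowers TR-FRET signal (665/620 ratio and 620 channel reported). Cells were CHO-M1, given carbachol (50 uM as added) plus 50mM LiCl, pH 7.4, 30 min, 37C; compounds titrated up to 46 uM; AC50 by Hill equation.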
PNC assembly inh – High Content Assay for Compounds that inhibit the Assembly of the Perinucleolar Compartment | activity change (PNC), negative = inhibition, % at 10 µM | PC3M PTB-GFP, PNC prevalence imaging, 16 h; active compounds read low | actives 3.1% (n = 140,000);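 active = readout at or below -70, meaning at least 70% loss of cells showing the perinucleolar compartment, a nuclear body marking cancer cells; inconclusive = readout between -30 and a set limit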;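 also: plate controls were DMSO wells for no effect and camptothecin positive control wells for full effect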
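Read-out is percentage of cells bearing a perinucleolar compartment, from automated 20x imaging of fixed, Hoechst-stained PC3M PTB-GFP cells. Cells were seeded 4 h, then exposed 16 h to compound (23 nl of library stock) in duplicate plates.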
Active calls of the source: *; ? = inconclusive; [ ] = another dose, or the depositor's remark. Unless noted, % is scaled to controls: 0 for no effect and ±100 for the full control effect.

A first look (25 entries):
| nr | SMILES | ALOX12 inhib | IMPase inh | PNC assembly inh |
| --- | --- | --- | --- | --- |
| 1 | CCOc1ccc(-c2cc(C(=O)Nc3ccc4c(c3)OCCO4)c3ccccc3n2)cc1 | -2% | 7 | -17 |
| 2 | CSc1nc(Oc2ccc(Cl)cc2)c2sccc2n1 | 3% | -8[1.84 µM] | ? |
| 3 | CC1CCCC(NC(=S)Nc2ccc(SC(F)F)cc2)C1C (stereo not drawn) | ? | 10 | -25 |
| 4 | COc1ccccc1N1CCN(Cc2nc3ccccc3c(=O)n2CC(C)=O)CC1 | -3% | -2 | -7 |
| 5 | CC(=O)Cc1nsc(NC(=O)c2ccc(-c3cc(C(F)(F)F)ccc3Cl)o2)n1 | -2% | 0 | 34 |
| 6 | Cc1cc(C)cc(NC(=S)N2CCC(c3nc4ccccc4s3)CC2)c1 | ? | 0 | 36 |
| 7 | CN(C)S(=O)(=O)NCc1ccc2c(c1)OCO2 | 2% | -6 | ? |
| 8 | CC(=O)Cc1nsc(NC(=O)c2ccc(-c3ccc(Cl)cc3Cl)o2)n1 | -2% | -3 | 26 |
| 9 | Cc1ccc(NC(=O)c2cc(-c3ccc(C)o3)nc3ccccc23)cc1 | -8% | 7 | 9 |
| 10 | CC(=O)SC(C[N+](=O)[O-])c1cn(C(C)=O)c2ccccc12 (stereo not drawn) | -22% | 0 | 33 |
| 11 | CC1(C)Cc2c(sc3[nH]c(=S)n(Cc4ccco4)c(=O)c23)CO1 | -30% | -21 | -9 |
| 12 | Cc1c(/C=N/NC(=O)c2cc(=O)[nH]c(=O)[nH]2)c2ccccn2c1C(=O)c1ccccc1 | -1% | -3 | -11 |
| 13 | COc1ccc(NC(=O)C2(c3ccc(NC(=O)c4ccc(OC(C)=O)cc4)cc3)CCCC2)cc1 | 7% | -14 | -21 |
| 14 | COc1ccc(-n2ccsc2=S)cc1 | -4% | -1 | ? |
| 15 | O=C1C2ON(c3ccccc3)C(c3ccccn3)C2C(=O)N1c1ccc(Br)cc1 (stereo not drawn) | -4% | 3 | 25 |
| 16 | COC(=O)COc1cccc(NC(=O)COc2ccccc2)c1 | 2% | -3 | ? |
| 17 | CC(=O)C1=C(C)Nc2ncnn2C1c1cccc(OCc2ccccc2)c1 (stereo not drawn) | -6% | -5 | 31 |
| 18 | Cc1cccc(Oc2sc(C(=O)c3ccccc3)c(N)c2C#N)c1 | -3% | 8 | 64 |
| 19 | N#Cc1c(N)n(CCOC(=O)c2cccc(Br)c2)c2nc3ccccc3nc12 | -8% | -10 | ? |
| 20 | CCSc1nc(N)c2c3c(sc2n1)CCC3 | 2% | -9 | 19 |
| 21 | CC1(C)CC(=O)C2(CC3=C(CC(C)(C)CC3=O)O2)C(=O)C1 | -2% | 3 | -26 |
| 22 | O=S(=O)(c1ccc(F)cc1)N1CCCC(CO)C1 (stereo not drawn) | 3% | 1 | -17 |
| 23 | C=CCNC(=O)N[C@@H](CCSC)C(=O)OC | 1% | 2 | -20 |
| 24 | COCCCNC(=O)C(=O)N/N=C/c1ccc(OCC(=O)Nc2cccc(Cl)c2C)c(OC)c1 | 7% | 1 | -15 |
| 25 | COc1cccc(NC(=O)CN2C(=O)COc3ccc(Cl)cc32)c1 | 4% | 2 | ? |

Results (from the top)
| nr | SMILES | ALOX12 inhib | IMPase inh | PNC assembly inh |
| --- | --- | --- | --- | --- |
| 1 | CCOc1ccc(-c2cc(C(=O)Nc3ccc4c(c3)OCCO4)c3ccccc3n2)cc1 | -2% | 7 | -17 |
| 2 | CSc1nc(Oc2ccc(Cl)cc2)c2sccc2n1 | 3% | -8[1.84 µM] | ? |
| 3 | CC1CCCC(NC(=S)Nc2ccc(SC(F)F)cc2)C1C (stereo not drawn) | ? | 10 | -25 |
| 4 | COc1ccccc1N1CCN(Cc2nc3ccccc3c(=O)n2CC(C)=O)CC1 | -3% | -2 | -7 |
| 5 | CC(=O)Cc1nsc(NC(=O)c2ccc(-c3cc(C(F)(F)F)ccc3Cl)o2)n1 | -2% | 0 | 34 |
| 6 | Cc1cc(C)cc(NC(=S)N2CCC(c3nc4ccccc4s3)CC2)c1 | ? | 0 | 36 |
| 7 | CN(C)S(=O)(=O)NCc1ccc2c(c1)OCO2 | 2% | -6 | ? |
| 8 | CC(=O)Cc1nsc(NC(=O)c2ccc(-c3ccc(Cl)cc3Cl)o2)n1 | -2% | -3 | 26 |
| 9 | Cc1ccc(NC(=O)c2cc(-c3ccc(C)o3)nc3ccccc23)cc1 | -8% | 7 | 9 |
| 10 | CC(=O)SC(C[N+](=O)[O-])c1cn(C(C)=O)c2ccccc12 (stereo not drawn) | -22% | 0 | 33 |
| 11 | CC1(C)Cc2c(sc3[nH]c(=S)n(Cc4ccco4)c(=O)c23)CO1 | -30% | -21 | -9 |
| 12 | Cc1c(/C=N/NC(=O)c2cc(=O)[nH]c(=O)[nH]2)c2ccccn2c1C(=O)c1ccccc1 | -1% | -3 | -11 |
| 13 | COc1ccc(NC(=O)C2(c3ccc(NC(=O)c4ccc(OC(C)=O)cc4)cc3)CCCC2)cc1 | 7% | -14 | -21 |
| 14 | COc1ccc(-n2ccsc2=S)cc1 | -4% | -1 | ? |
| 15 | O=C1C2ON(c3ccccc3)C(c3ccccn3)C2C(=O)N1c1ccc(Br)cc1 (stereo not drawn) | -4% | 3 | 25 |
| 16 | COC(=O)COc1cccc(NC(=O)COc2ccccc2)c1 | 2% | -3 | ? |
| 17 | CC(=O)C1=C(C)Nc2ncnn2C1c1cccc(OCc2ccccc2)c1 (stereo not drawn) | -6% | -5 | 31 |
| 18 | Cc1cccc(Oc2sc(C(=O)c3ccccc3)c(N)c2C#N)c1 | -3% | 8 | 64 |
| 19 | N#Cc1c(N)n(CCOC(=O)c2cccc(Br)c2)c2nc3ccccc3nc12 | -8% | -10 | ? |
| 20 | CCSc1nc(N)c2c3c(sc2n1)CCC3 | 2% | -9 | 19 |
| 21 | CC1(C)CC(=O)C2(CC3=C(CC(C)(C)CC3=O)O2)C(=O)C1 | -2% | 3 | -26 |
| 22 | O=S(=O)(c1ccc(F)cc1)N1CCCC(CO)C1 (stereo not drawn) | 3% | 1 | -17 |
| 23 | C=CCNC(=O)N[C@@H](CCSC)C(=O)OC | 1% | 2 | -20 |
| 24 | COCCCNC(=O)C(=O)N/N=C/c1ccc(OCC(=O)Nc2cccc(Cl)c2C)c(OC)c1 | 7% | 1 | -15 |
| 25 | COc1cccc(NC(=O)CN2C(=O)COc3ccc(Cl)cc32)c1 | 4% | 2 | ? |
| 26 | COC(=O)c1sc2nc3c(cc2c1N)COC(C)(C)C3 | 2% | -2 | ? |
| 27 | COc1ccc(NC(=O)CCN2CCCCCC2)c(OC)c1 | -2% | 25 | -21 |
| 28 | COc1ccccc1NC(=O)C1=C(C)Nc2nnnn2C1c1cccc(Br)c1 (stereo not drawn) | -10% | 4 | 47 |
| 29 | Cc1nnc(SCC(=O)N2CCC(c3noc4ccc(F)cc34)CC2)s1 | -1% | 7 | -9 |
| 30 | CCOc1cc(S(=O)(=O)N2CCCC2)ccc1Cl | -1% | -2 | 47 |
| 31 | CC(=O)Nc1cc(S(=O)(=O)C(F)(F)F)ccc1Cl | -1% | 4 | 24 |
| 32 | Cc1noc(C)c1S(=O)(=O)NCc1ccc2c(c1)OCO2 | 1% | 8 | 14 |
| 33 | COc1ccccc1OCC(=O)Nc1ccc(S(=O)(=O)N2CCCCCC2)cc1 | -7% | 0 | 44 |
| 34 | CCc1nc(NCCc2ccccn2)c2nnn(Cc3ccccc3F)c2n1 | -3% | 10 | 7 |
| 35 | CCC(C)(C)n1nnnc1C(c1ccc(C)cc1)N1CCSCC1 (stereo not drawn) | -2% | 4 | ? |
| 36 | Brc1ccc(CSc2nccn2-c2ccccc2)cc1 | 2% | -6 | 18 |
| 37 | CCCc1cc(=O)oc2cc(OCC(=O)OC)cc(OCC(=O)OC)c12 | -6% | 12 | 13 |
| 38 | COc1ccc2oc(/C=C/N(C)C)c(C(=O)c3ccc(Cl)cc3)c2c1 | ? | -4 | ? |
| 39 | O=C(CN(Cc1ccc(F)cc1)C(=O)c1ccco1)NCc1ccc(F)cc1 | -1% | -5 | -22 |
| 40 | CCCCCSc1nc(O)cc(=O)[nH]1 | -14% | 6 | ? |
| 41 | CCC(=O)Nc1cccc(NC(=O)COc2ccc(OC)cc2)c1 | -2% | 5 | -26 |
| 42 | COc1ccc(CNc2nc3nc4c(c(=O)n3[nH]2)CCC4)cc1 | -4% | -4 | ? |
| 43 | COC(=O)NC(Nc1sc2c(c1C(N)=O)CCCC2)(C(=O)OC)C(F)(F)F (stereo not drawn) | -5% | 12 | 43 |
| 44 | COc1cc(OC)c(OC)cc1/C=N/n1c(C)nnc1C | -3% | 6 | ? |
| 45 | CC(=O)NS(=O)(=O)c1cccnc1Nc1ccc(Cl)cc1 | 4% | ? | ? |
| 46 | O=C(c1ccc2c(c1)OCO2)N1CCN=C1SCc1cccnc1 | -7% | 8 | 25 |
| 47 | COc1nc(N(c2ccccc2)c2ccccc2)nc(-n2ccnc2)n1 | 2% | -2 | -29 |
| 48 | COc1ccc(CNc2nc(NCc3ccc(OC)cc3)n(C(=O)c3ccccc3[N+](=O)[O-])n2)cc1 | -3% | 8 | -20 |
| 49 | CCCCOc1ncnc2c1[nH]c1ccc(OC)cc12 | -7% | -3 | -10 |
| 50 | CC1CC(C)CN(C(=O)CCCn2c(=S)[nH]c3ccccc3c2=O)C1 (stereo not drawn) | -12% | -5 | -10 |
| 51 | CC(=O)C1=C(C)NC(C)=C(C(C)=O)C1c1ccc(-c2ccccc2Cl)o1 | -10% | 2 | 2 |
| 52 | COc1ccccc1C(=O)Nc1ccc2c(c1)OCCO2 | -3% | 9 | -26 |

A portion of the library (hit frequency here may not be typical).
